# Assay outcomes (PubChem)
# BJeLR viability – BJeLR cell viability loss. BJeLR (HRASV12) viability, CellTiter-Glo ATP luminescence, 48 h; reference of the scale not given here. inhibition, % (test concentration not listed). 300,000 compounds, 0.17% hits;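 active = replicate mean above 50%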;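 also: 50 nL library stock added to about 25 µL; numbers are from one replicate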
# Sa ugtP lethal – growth inhibition of S. aureus ugtP deletion strain. AID 1259309. S. aureus RN4220 ugtP deletion, OD600 growth, 16 h; some inactives read as strong as hits. growth inhibition, % (concentration not given with the values). 330,000 compounds, 0.54% hits;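 active = z-score under -3 and OD600 up to 0.15 on both plates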;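 also: plate controls were untreated wells for no effect and antibiotic for full effect; wells of about 80 µL received 100 nL stock; the first replicate is given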
# PrP UTR inh – suppresses PrP 5' UTR mRNA reporter expression | inhibition, % (concentration not given with the values) | cell-based PrP 5' UTR mRNA reporter, plate reader | AID 488862 | 340,000 compounds, 0.35% hits;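 active = every replicate at 50% or more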;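 also: 0 = median of the neutral control wells; tested in H4 reporter cells; numbers are from one replicate; inactives centre near -14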
# Mtb hypoxia rep – Mtb hypoxia fluorescent reporter inhibition | fluorescence inhibition, % (no concentration beside the values) | AID 1159583 | 300,000 compounds, 0.1% hits | M. tuberculosis hypoxia-regulated fluorescent reporter, fluorescence;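 active = 35 to 45% if threefold the growth effect, above 45% if 1.5-fold the growth effect; inactive = the rest, general growth blockers included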;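 also: wells of about 50 µL received 100 nL stock; 0% = vehicle wells and 100% = reference inhibitor wells; whole bacteria with a GFP reporter of the hypoxia response; strong numbers were not always called active; many hits fall short of the cut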
# Sa RN4220 lethal – S. aureus RN4220 growth inhibition; OD600, 16 h; inhibition, % (no concentration beside the values); 330,000 compounds, 0.33% hits;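 active = z-score of -3 or lower and OD600 up to 0.18 on both plates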;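 also: plate controls were untreated cells for no effect and reference antibiotic for full effect; stock transfer was 100 nL into about 80 µL; one replicate is shown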
# Autofluor counter – compound fluorescence in toxin protease inhibitor counterscreen; compound autofluorescence counterscreen, microsphere flow cytometry; active compounds read high; fluorescence intensity (no concentration beside the values); 360,000 compounds, 3.1% hits; AID 624483;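 active = at least 3 SD above the mean of all compounds, about 16000 in these data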;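 also: 100 nL of 1 mM stock went into each well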
# Mtb hypoxia rep growth – second read-out of Mtb hypoxia rep, no call of its own (marks repeat the call); growth inhibition, %; measured here: M. tuberculosis growth (absorbance);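 0% = vehicle and 100% = reference antibiotic; read after six days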
# * marks the source's active call; other numbers are inactive results; . = no result given; & = joins results of further samples. An unsorted share of the library; about 4% have a hit in one of these screens.
nr	Molecule	BJeLR viability	Sa ugtP lethal	PrP UTR inh	Mtb hypoxia rep
1	Cc1ccc(CNC(=O)Cn2ccc(NC(=O)OCc3ccccc3)nc2=O)o1	.	9	-19	3
2	O=S(=O)(c1ccc(Cl)cc1)N1CCCC1c1nc2ccccc2s1 (configuration not stated)	-16	-22	-6	-1
3	CCOc1ccc(CN(C)C(=O)NNC(=O)c2ccc(C)cc2)cc1OC	8	6	4	2
4	O=C(NC(NC(=S)Nc1ccc(Cl)cc1Cl)C(Cl)(Cl)Cl)c1cccc([N+](=O)[O-])c1 (configuration not stated)	-7	73	-6	-9
5	COc1ccc(C(=O)NC2CCN(CC(=O)NCc3cccc(OC)c3)CC2)cc1	-4	8	0	7
6	C#CCO[C@@H]1C[C@H](n2cnc3c(=O)[nH]c(NC(=O)C(C)C)nc32)O[C@@H]1CO	4	.	-9	.
7	CCN(CC)CCCNC(=O)c1ccc(OCC(=O)Nc2ccccc2C(F)(F)F)c(OC)c1	6	1	-8	7
8	Nc1c(C(=O)OCc2ccccc2)c2nc3ccccc3nc2n1Cc1cccs1	10	5	-31	-7

nr	Mtb hypoxia rep growth	Sa RN4220 lethal	Autofluor counter
1	1	5.1	3535
2	3	-6.3	4634
3	6	0.6	4233
4	11	87*	8787
5	6	0.6	4624
6	.	.	3828
7	3	1.7	2326
8	1	-5.0	5451

# The list goes on:
nr	Molecule	BJeLR viability	Sa ugtP lethal	PrP UTR inh	Mtb hypoxia rep
9	CCOc1ccc(C(=O)NCC(=O)N2CCCC2)cc1	0	-4	-12	2
10	CCN(Cc1cnn(C)c1)C(=O)C1CCC(=O)N(CCc2ccc(OC)cc2)C1 (configuration not stated)	-7	6	-76	13
11	Cc1ccc(C(=O)NC(C)CN2C3=NCC(Cc4ccccc4)N3CC2Cc2ccc(O)cc2)cc1Br (configuration not stated)	.	-2&-25	.	-1&-6
12	O=C(O)C1CCCCC1C(=O)Nc1cccc2ccccc12 (configuration not stated)	0	-2	-54	9
13	O=[N+]([O-])c1ccc(S(=O)(=O)N2CCSC2c2ccco2)cc1 (configuration not stated)	5	73	-2	4
14	CC(C)c1ccc(NC(=S)N2CCN(C)CC2)cc1	.	2	-7	2
15	CCN(CC)C(=O)[C@H]1CC(CC(=O)NCCc2ccccn2)C(=O)N2CCc3c([nH]c4ccc(OC)cc34)[C@]12C (some centres not stated)	.	0	-19	-10
16	Cc1ccc2oc(-c3ccc(NC(=O)c4cccnc4)cc3)nc2c1	0	54	-74	.

nr	Mtb hypoxia rep growth	Sa RN4220 lethal	Autofluor counter
9	-2	-1.7	5354
10	3	1.8	5507
11	18&17	-5.4&-7.3	.
12	1	5.4	20285*
13	7	46	5785
14	10	0.3	5251
15	2	1.1	2856
16	.	-12	3213

# Next section
nr	Molecule	BJeLR viability	Sa ugtP lethal	PrP UTR inh	Mtb hypoxia rep
17	CCC(c1nnnn1Cc1ccccc1)N(Cc1ccco1)Cc1cc2cc(OC)ccc2[nH]c1=O (configuration not stated)	-8	-22	-10	12
18	Cc1ccc(C(=O)NCC(=O)N2CCN(S(=O)(=O)c3cccs3)CC2)s1	-4	2	4	-3
19	CCN(CC)S(=O)(=O)c1ccc(Cl)c(C(=O)Nc2nncs2)c1	-12	11	-25	.
20	O=C(Nc1ncc(Cc2cccc(Cl)c2)s1)C1CCCO1 (configuration not stated)	0	-3	-50	.
21	O=C(Cn1ncc2c([nH]c3ccccc32)c1=O)N1CCN(c2ccccn2)CC1	8	13	10	-3
22	Cc1nc2c3cc(F)ccc3n(Cc3ccccc3)c2s1	4	-3	-10	8
23	COc1cc(/C=N/NC(=O)CC23CC4CC(CC(C4)C2)C3)cc(Br)c1OCC(=O)N(C)C	-5	.	-7	.
24	CC(C)[C@H](NC(=O)c1ccc(C(C)(C)C)cc1)C(=O)Nc1nnc(C2CC2)s1	-7	15	-7	6

nr	Mtb hypoxia rep growth	Sa RN4220 lethal	Autofluor counter
17	16	6.6	3182
18	12	5.9	4147
19	.	5.8	2542
20	.	-1.1	3327
21	-10	4.8	4132
22	11	-5.9	2073
23	.	.	2097
24	6	-2.7	9448

# 5 entries drawn at random from the list so far, as already listed:
nr	Molecule	BJeLR viability	Sa ugtP lethal	PrP UTR inh	Mtb hypoxia rep
18	Cc1ccc(C(=O)NCC(=O)N2CCN(S(=O)(=O)c3cccs3)CC2)s1	-4	2	4	-3
23	COc1cc(/C=N/NC(=O)CC23CC4CC(CC(C4)C2)C3)cc(Br)c1OCC(=O)N(C)C	-5	.	-7	.
19	CCN(CC)S(=O)(=O)c1ccc(Cl)c(C(=O)Nc2nncs2)c1	-12	11	-25	.
21	O=C(Cn1ncc2c([nH]c3ccccc32)c1=O)N1CCN(c2ccccn2)CC1	8	13	10	-3
24	CC(C)[C@H](NC(=O)c1ccc(C(C)(C)C)cc1)C(=O)Nc1nnc(C2CC2)s1	-7	15	-7	6

nr	Mtb hypoxia rep growth	Sa RN4220 lethal	Autofluor counter
18	12	5.9	4147
23	.	.	2097
19	.	5.8	2542
21	-10	4.8	4132
24	6	-2.7	9448

# Further records:
nr	Molecule	BJeLR viability	Sa ugtP lethal	PrP UTR inh	Mtb hypoxia rep
25	CN(Cc1ccccc1)C(=O)c1ncn(C)c1C(=O)N(C)Cc1ccccc1	.	-10	1	12
26	CCc1ccccc1NC(=S)N(CCN1CCCCC1)Cc1ccco1	-4	14	-23	14
27	CCN(CC(=O)Nc1c(F)cccc1F)C(=O)C1CC1C (configuration not stated)	4	1	-30	0
28	CCCCN(C)C1CCN(C(=S)Nc2ccc(OC)cc2)CC1	-3	7	-23	-1
29	Nc1cc(=O)nc(SCC(=O)N(C2CCCCC2)C2CCCCC2)n1-c1ccccc1	-5	10	-11	3
30	Cc1ccc(NC(=O)c2ccc(S(=O)(=O)NCc3cccnc3)cc2)c(C)c1	-2	1	-4	1
31	OC(Cn1cncn1)c1ccc(Cl)cc1 (configuration not stated)	8	-7	-24	4
32	Cc1c(Cl)c([N+](=O)[O-])nn1CC(=O)NC12CC3CC(CC(C3)C1)C2	0	-10	-7	.

nr	Mtb hypoxia rep growth	Sa RN4220 lethal	Autofluor counter
25	10	3.2	3917
26	3	5.3	4275
27	4	0.9	5969
28	2	4.3	4361
29	6	4.3	16646*
30	2	0.2	3227
31	4	5.5	11819
32	.	-3.6	6150

# The listing continues:
nr	Molecule	BJeLR viability	Sa ugtP lethal	PrP UTR inh	Mtb hypoxia rep
33	O=C(C/C=N/OCc1ccc(F)cc1Cl)c1cnc(-c2ccccc2)s1	2	.	-11	.
34	COc1ccc(CN2C(=NC(=O)C3CCCCC3)SC3CS(=O)(=O)CC32)cc1 (configuration not stated)	6	1	-8	0
35	CCCN1CCN(C(=S)Nc2ccc([N+](=O)[O-])cc2)CC1	5	5	1	12
36	NS(=O)(=O)c1ccc(NC(=O)COC(=O)COc2ccccc2)cc1	-5	3	-26	9
37	CCCCC12CN3CCN(CC(C3)C1=NNC(=O)Nc1ccccc1)C2	.	12	.	0
38	COc1cc(/C=C2/SC(=O)NC2=O)ccc1OC(=O)c1ccco1	-1	4	-2	6
39	O=c1c(O)c(-c2cccs2)oc2ccc(Cl)cc12	1	-19	.	-9
40	C=CCNC(=O)NC(=O)CN1C(=O)NC(c2ccccc2)(c2ccccc2)C1=O	7	-1	-8	14

nr	Mtb hypoxia rep growth	Sa RN4220 lethal	Autofluor counter
33	.	.	3704
34	-3	2.9	3997
35	12	1.9	9053
36	-2	1.6	2949
37	-4	4.2	.
38	12	6.9	5518
39	0	7.1	9623
40	1	4.7	3127

# New compounds follow
nr	Molecule	BJeLR viability	Sa ugtP lethal	PrP UTR inh	Mtb hypoxia rep
41	CC(C)NC(=O)Cn1cc(C(=O)C(=O)N2CCOCC2)c2ccccc21	-1	6	-2	9
42	COc1cc(Br)cc(C=Nc2ncn[nH]2)c1O	.	1	.	-2
43	O=C(CS(=O)(=O)c1cn(CC(=O)N2CCOCC2)c2ccccc12)NCc1ccc(F)cc1	2	4	-11	3
44	COc1ccc(NC(C)=C2C(=O)C(=O)N(CCO)C2c2ccc([N+](=O)[O-])cc2)cc1 (configuration not stated)	.	-1	.	6
45	CC(C)=CCN1CCN(Cc2cnc(N3CCCC3)s2)CC1CCO (configuration not stated)	-3	-3	-5	-1
46	COc1ccc(-n2c(O)c(/C=N/Nc3nc(C)cc(C)n3)c3ccccc3c2=O)cc1OC	14	3	-13	-2
47	COc1cc(/C=N/NC(=O)c2ccncc2)ccc1OCC(=O)Nc1ccc(C)c(C)c1	2	.	-23	.
48	Cc1cc(C)c(NC(=O)c2sc3nc4c(cc3c2N)C(=O)CC(C)(C)C4)c(C)c1	4	3	-26	10

nr	Mtb hypoxia rep growth	Sa RN4220 lethal	Autofluor counter
41	16	2.6	6228
42	1	-2.1	.
43	5	3.6	6032
44	1	5.4	.
45	9	5.2	4554
46	-3	-2.3	3099
47	.	.	3570
48	4	2.0	2214

# Additional compounds
nr	Molecule	BJeLR viability	Sa ugtP lethal	PrP UTR inh	Mtb hypoxia rep
49	COc1ccc(C(=O)NCCCCCCNC(=O)c2ccc(OC)cc2)cc1	15	2	3	-5
50	O=C(Nn1c(=O)[nH]c2ccsc2c1=O)c1ccccc1	5	100*	-1	10
51	COc1ccc(C=NNC(=O)c2cccc(Br)c2)cc1CN1CCOCC1	.	3	.	-4
52	CN(N=Cc1ccc(Cl)cc1)c1ncc(Cl)cc1C(F)(F)F	.	98*	.	8
53	C=CCNc1ncnc2c1[nH]c1ccc(Cl)cc12	5	-14	-44	-5
54	Cc1ccc(CN2CCN(C(=O)CCN3C(=O)c4ccccc4C3=O)CC2)cc1	-3	-2	-20	2
55	Cc1ccc(-c2nn(-c3ccccc3)cc2C(=O)N2CCN(C3CCS(=O)(=O)C3)CC2)cc1 (configuration not stated)	.	3	-17	15
56	COCCN1C(=O)C(CC(=O)Nc2ccc(C(=O)O)cc2)SC1=Nc1ccccc1 (configuration not stated)	.	0	-3	.

nr	Mtb hypoxia rep growth	Sa RN4220 lethal	Autofluor counter
49	6	1.3	3672
50	4	98*	10647
51	-3	0.0	.
52	2	-11	.
53	-1	2.4	9280
54	5	4.5	2523
55	5	0.1	3971
56	.	-0.9	2698

# Carrying on:
nr	Molecule	BJeLR viability	Sa ugtP lethal	PrP UTR inh	Mtb hypoxia rep
57	NNC(=O)c1cc2c(N3CCC(Cc4ccccc4)CC3)ncnc2s1	-2	25	-18	2
58	Fc1ccc(COc2cccc3cccnc23)cc1	-1	1	-55	6
59	O=C(Nc1ccc(SC(F)F)cc1)c1ccc2c(=O)n3c(nc2c1)CCC3	.	-14	-61	6
60	CCOc1ccc2[nH]c(=O)c(CN(CCO)C(=O)c3ccc(Br)cc3)cc2c1	-6	-10	-6	7
61	CCCc1cc(-c2n[nH]c(=S)n2CC)cs1	3	1	-24	6
62	COC(=O)c1ccccc1S(=O)(=O)N1CCC(C(=O)OCc2cccc(OC)c2OC)CC1	1	10	-5	6
63	CCCCSP1(=S)NCCCN1	-2	0	-7	.
64	O=C(/C=C/c1ccc(Br)cc1)N1CCN(Cc2ccccc2)CC1	-7	12	-32	10

nr	Mtb hypoxia rep growth	Sa RN4220 lethal	Autofluor counter
57	1	13	3403
58	7	1.4	4034
59	12	2.5	4719
60	2	3.2	2395
61	7	8.0	5475
62	2	2.4	5208
63	.	3.8	2646
64	4	2.4	5270

# New compounds follow
nr	Molecule	BJeLR viability	Sa ugtP lethal	PrP UTR inh	Mtb hypoxia rep
65	O=C(N/N=C/c1ccccn1)c1cccc(NC(=O)c2ccc(Cl)cc2)c1	-8	.	-6	.
66	CN(C)c1nc2c(c(=O)n(C)c(=O)n2C)n1CC(=O)c1cccs1	0	12	-30	-1
67	O=C(CN1C(=O)S/C(=C/c2ccccn2)C1=O)N1CCOCC1	2	11	-8	18
68	COc1ccc(C(=O)COC(=O)c2ccc3c(c2)OCO3)c(OC)c1	.	-2	-26	-5
69	C(=N\N1CCOCC1)/c1ccsc1	6	.	-7	.
70	CC(=NNC(=O)c1ccccc1O)c1ccc(NC(=O)c2ccccc2)cc1	.	5	.	-11
71	Cc1cc(Cl)ccc1OCC(=O)NN1C(=O)C2C3C=CC(C3)C2C1=O (configuration not stated)	-10	2	-7	1
72	COc1ccc(S(=O)(=O)Nc2cccc(Cl)c2)cc1OC	4	-3	-22	9
73	CCc1ccc(-n2cc(-c3ccc([N+](=O)[O-])cc3)[nH]c2=S)cc1	-9	1	-7	13

nr	Mtb hypoxia rep growth	Sa RN4220 lethal	Autofluor counter
65	.	.	3600
66	7	0.5	5095
67	-4	2.8	5352
68	3	4.2	3680
69	.	.	2903
70	-9	9.3	.
71	1	5.0	4586
72	10	5.5	20245*
73	7	3.1	2052
